HPGD inh: blocks human HPGD enzyme activity. P15428. purified HPGD, NADH fluorescence kinetic, PGE2 substrate. Potency, µM, for the others: top-dose activity change, negative = inhibition, most hits filed as inhibitors. 4.3% of 150,000 active; active = well fitted inhibition curve with a large enough effect (not every such curve was filed as active); inconclusive = small, poorly fitted or top-dose-only effect, or another doubt; inactive = no such curve, though single readings can be large or run the other way;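 note: top concentration of the series not given in the record; plate controls included wells without enzyme; inactives centre near -10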
Target sequence (P15428 whole entry, looked up): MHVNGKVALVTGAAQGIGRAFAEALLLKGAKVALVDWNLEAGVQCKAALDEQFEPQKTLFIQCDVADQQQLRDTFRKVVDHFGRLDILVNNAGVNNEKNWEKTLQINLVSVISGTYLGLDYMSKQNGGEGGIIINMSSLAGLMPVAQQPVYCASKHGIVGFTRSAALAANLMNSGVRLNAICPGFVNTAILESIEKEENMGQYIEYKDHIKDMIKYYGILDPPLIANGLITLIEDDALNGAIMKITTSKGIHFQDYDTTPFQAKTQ
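20 nM HPGD preincubated 15 min at room temperature with compound in 50 mM Tris-HCl pH 8, 0.01% Tween 20. Started with 1 mM NAD+ and 30 uM prostaglandin E2; NADH fluorescence (360/450 nm) read 5 times over 30-s intervals, last minus first.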
* hit, by the source's call; & = joins results of further samples. % is set by controls: 0 for no effect and ±100 for the full control effect; potency is the fitted concentration of half-maximal effect. Some of the compounds tested; rates above refer to the full screens.

How did COc1ccc(C(C)=O)cc1CSc1nc2ccccc2c(=O)n1-c1ccccc1 do in these assays?
HPGD inh: -11.3%

What do the screens show for `CCSCCC(NC1=CC(=O)CC(C)(C)C1)C(=O)O` (configuration not stated)?
HPGD inh: -4.0%

What do the screens show for `COc1ccc(C2c3ccc4ccccc4c3Oc3ncn(CCN4CCOCC4)c(=N)c32)cc1` (configuration not stated)?
HPGD inh: -8.4%

Results for COc1ccc(Oc2ncc3nc(-c4cccs4)c(=O)n(Cc4cccs4)c3n2)cc1 ?
HPGD inh: -21.8%

Results for Cc1ccc(S(=O)(=O)N2CCCCC2)cc1NC(=O)c1ccc2c(=O)n3c(nc2c1)CCCCC3 ?
HPGD inh: -19.4%

Results for Cc1ccccc1OCC(O)CN (configuration not stated) ?
HPGD inh: -8.1%

How did Cc1ccc(/C=N\NC(=O)c2cncc(Br)c2)o1 do in these assays?
HPGD inh: -11.1%

How did CCCOC(=O)Cn1c(=O)c2cc3c(=O)n(CC(=O)OCCC)c(=O)c3cc2c1=O do in these assays?
HPGD inh: -8.3%

How did CCOC(=O)C1CCCN(C(=O)c2cn(C)c3ccc(S(=O)(=O)N4CCCC4)cc3c2=O)C1 (configuration not stated) do in these assays?
HPGD inh: -1.1%

Results for O=C(NNC1=Nc2cccc3cccc1c23)c1ccccc1Br ?
HPGD inh: -5.4%

What do the screens show for `CCOc1ccc(C(=O)NCC(c2cccs2)N(C)C)cc1` (configuration not stated)?
HPGD inh: -32.0%

What do the screens show for `CNC(=O)[C@@H](Cc1ccccc1)N(C)C(=O)[C@@H](Cc1ccc2ccccc2c1)N(C)C(=O)/C=C/CC(C)(C)N`?
HPGD inh: -2.2%

Brought forward from above: two compounds; new compounds follow.
What do the screens show for `CCOc1ccc(C(=O)NCC(c2cccs2)N(C)C)cc1` (configuration not stated)?
HPGD inh: -32.0%

What do the screens show for `CNC(=O)[C@@H](Cc1ccccc1)N(C)C(=O)[C@@H](Cc1ccc2ccccc2c1)N(C)C(=O)/C=C/CC(C)(C)N`?
HPGD inh: -2.2%

What do the screens show for `Cc1cc(-c2ccccc2)c2c3c(cn2n1)c(=O)n(C)c(=O)n3C`?
HPGD inh: -6.6%

How did COc1cc(C2C(C#N)=C(C)NC3=C2C(=O)CC(C)(C)C3)ccc1O (configuration not stated) do in these assays?
HPGD inh: -14.7%

How did COc1ccc(NC(=O)CCC(=O)N/N=C/c2ccc([N+](=O)[O-])s2)cc1 do in these assays?
HPGD inh: -2.4%

How did COc1cccc(C(=O)Nc2nnc(C3CCCO3)s2)c1 (configuration not stated) do in these assays?
HPGD inh: -27.1%

How did Cc1nc2ccccc2c(-c2ccccc2)c1C(=O)c1ccccc1 do in these assays?
HPGD inh: -9.9%

What do the screens show for `CCc1ccc(N(CC)c2ncnc3nc[nH]c23)cc1`?
HPGD inh: -8.9%

What do the screens show for `CN1/C(=C\C(=O)c2cccc(S(=O)(=O)N3CCCCC3)c2)C(C)(C)c2ccccc21`?
HPGD inh: -29.9%

How did CN(C)c1nc(SCc2ccc(Cl)cc2)nc2c1CCCC2 do in these assays?
HPGD inh: 0.9%

Results for C(=N/N1CCN(c2ccccc2)CC1)/c1cccs1 ?
HPGD inh: -7.8%

How did c1ccc(Nc2nc(-c3ccncc3)cs2)cc1 do in these assays?
HPGD inh: -24.7%

How did Cc1cccc(-n2c3nc(=O)[nH]c(=O)c-3cc3c(C)nn(-c4ccccc4)c32)c1C do in these assays?
HPGD inh: inconclusive

Results for O=S(=O)(N=S(N1CCCCC1)N1CCCCC1)c1ccccc1 ?
HPGD inh: -12.5%

Results for O=c1[nH]c(CN2CCN(S(=O)(=O)c3ccccc3C(F)(F)F)CC2)nc2sc3c(c12)CCCC3 ?
HPGD inh: -21.1%

How did N=C(N)SCCc1cccc(CCSC(=N)N)c1 do in these assays?
HPGD inh: -13.9%

Results for COC(=O)c1cc2sc(Cl)cc2n1CC(=O)Nc1cccc(SC)c1 ?
HPGD inh: -8.8%

Results for Cn1c(SCC(=O)N2CCCc3ccccc32)nc2ccccc2c1=O ?
HPGD inh: -11.3%

Results for CC1CCN(c2c(NCc3ccc(C(=O)N4CCN(C5CCCCC5)CC4)cc3)c(=O)c2=O)CC1 ?
HPGD inh: inconclusive

Results for Cc1ccc(NC(=O)CCCCCN2C(=O)c3ccccc3C2=O)nc1 ?
HPGD inh: -10.0%

Results for CCCn1c(/N=C/c2ccccc2O)nc2ccccc21 ?
HPGD inh: -8.1%

Results for O=C(CN1C(=O)c2ccccc2S1(=O)=O)c1ccccc1 ?
HPGD inh: -14.2%

What do the screens show for `O=C(Nc1ccc(Cl)cc1)C1CC=CCC1C(=O)OCC(F)(F)C(F)F` (configuration not stated)?
HPGD inh: -13.1%

What do the screens show for `O=C(NCc1ccc2c(c1)OCO2)C12CN(Cc3ccccc3)CC1C(c1cccc([N+](=O)[O-])c1)=NO2` (configuration not stated)?
HPGD inh: -1.8%

How did O=C(c1ccco1)N1CCN(C(=O)c2ccc(Cn3cc(Br)cn3)o2)CC1 do in these assays?
HPGD inh: -12.1%

How did N=c1c2c(n(Cc3ccc(Br)cc3)c3c1CCC3)CCCC2 do in these assays?
HPGD inh: -0.7%

Results for Cn1c(=O)c2c(ncn2CN2CCN(Cn3cnc4c3c(=O)n(C)c(=O)n4C)CC2)n(C)c1=O ?
HPGD inh: -0.3%

What do the screens show for `Cc1noc(NS(=O)(=O)c2ccc(NC(=O)c3cnc4n(c3=O)CCS4)cc2)c1C`?
HPGD inh: -0.8%

Results for CC(=O)Nc1ccc(NC(=O)C(Cc2ccccc2)NC(=O)C2CCCCC2)cc1 (configuration not stated) ?
HPGD inh: -2.0%

How did CCCC(=O)N(c1ccc(F)cc1)C1C=CS(=O)(=O)C1 (configuration not stated) do in these assays?
HPGD inh: -12.7%

What do the screens show for `CCOC(=O)c1c(C)[nH]c(C(=O)OC/C(O)=C(\C#N)c2nc3ccccc3[nH]2)c1C`?
HPGD inh: -8.8%

How did Cc1ccc(S(=O)(=O)NCCC(=O)Nc2nnc(C)s2)cc1 do in these assays?
HPGD inh: -4.4%

What do the screens show for `O=C(NCCC1=CCCCC1)c1cnsn1`?
HPGD inh: -5.7%

What do the screens show for `Cc1ccc(S(=O)(=O)Nc2ccc(-c3csc(-c4ccccc4)n3)cc2)cc1`?
HPGD inh: -9.8%

How did CCOC(=O)CN(Cc1sccc1C)C(=O)Nc1ccc(OCC)cc1 do in these assays?
HPGD inh: -1.4%

Results for O=C(c1cccc(F)c1)N1CCC2(CC1)CN(c1ccc(-c3ccccc3)cc1)C2 ?
HPGD inh: inconclusive

What do the screens show for `O=C(Nc1ccc(-c2nc3ccccc3[nH]2)cc1)C1CCCO1` (configuration not stated)?
HPGD inh: inconclusive

Results for CN1CCC[C@@H]1CCO[C@](C)(c1ccccc1)c1ccc(Cl)cc1 ?
HPGD inh: 2.0%&-3.3%

Structures from the list above containing a furan ring, fused or not (two):
How did Cc1ccc(/C=N\NC(=O)c2cncc(Br)c2)o1 do in these assays?
HPGD inh: -11.1%

How did O=C(c1ccco1)N1CCN(C(=O)c2ccc(Cn3cc(Br)cn3)o2)CC1 do in these assays?
HPGD inh: -12.1%

Later entries
How did COc1ccc(OCC(=O)OCC(=O)Nc2ccc(S(=O)(=O)N3CCCCC3)cc2)cc1 do in these assays?
HPGD inh: -6.9%

Results for CC1CC(C)CN(C(=O)Cn2c(SCC(=O)N3CCc4ccccc4C3)nc3ccccc32)C1 (configuration not stated) ?
HPGD inh: 3.9%

Results for COc1ccc2c(c1)C(C)=CC(C)(C)N2C(=O)CN1C(=O)CCC1=O ?
HPGD inh: -8.8%

How did Cc1cc(CSc2ccccc2)ccc1NC(=O)COc1ccccc1 do in these assays?
HPGD inh: -10.2%

Results for Cc1ccc(OCC(=O)NNC(=O)C2CCN(c3nccc(C)n3)CC2)cc1 ?
HPGD inh: -13.3%

Results for C/C(=N\Nc1ccc([N+](=O)[O-])cc1)c1ccc(-n2nncc2C)cc1 ?
HPGD inh: 8.91µM*

Results for CCC(C)N1CCCCC1C(=O)Nc1c(C)cc(C)cc1C (configuration not stated) ?
HPGD inh: -14.0%

Results for Cc1cc(NC(=O)c2cc3ccccc3oc2=O)no1 ?
HPGD inh: -11.0%

What do the screens show for `COC(=O)[C@H](Cc1ccccc1)NC(=O)O[C@@H]1C(=O)c2cc(OC)ccc2O[C@H]1c1ccc(OC)c(Br)c1`?
HPGD inh: -16.6%

Results for c1ccc(-c2noc(CSc3nnc(Cc4cccs4)n3-c3ccccc3)n2)cc1 ?
HPGD inh: -1.1%

How did CCCCNC(=O)C1C2C=CC3(CN(Cc4ccc(C)cc4)C(=O)C13)O2 (configuration not stated) do in these assays?
HPGD inh: -2.9%

Results for O=C(NCCN1C(=O)S/C(=C\c2ccc(OC(F)F)cc2)C1=O)c1cnccn1 ?
HPGD inh: -3.6%

What do the screens show for `CCOc1ccc(CC(=O)Nc2ccc(S(=O)(=O)Nc3cc(C)on3)cc2)cc1OCC`?
HPGD inh: -5.7%

How did COc1cccc(-c2csc(N3CCN(C(=O)Nc4ccccc4OC)CC3)n2)c1 do in these assays?
HPGD inh: -2.7%

How did Cc1ccc(-n2c(C)cc(/C([O-])=C(/C(=S)Nc3ccc(F)c(Cl)c3)[n+]3ccccc3)c2C)cc1 do in these assays?
HPGD inh: -13.8%

Results for O=C1C2ON(c3ccc(Cl)cc3)C(c3ccco3)C2C(=O)N1c1ccccc1 (configuration not stated) ?
HPGD inh: -14.7%

How did Cc1ccc(CNC(=O)CSc2ccc(-c3ccco3)nn2)cc1 do in these assays?
HPGD inh: -24.4%

Results for CC(=O)n1nc(-c2ccccc2)nc1NCc1ccc(F)cc1 ?
HPGD inh: -18.6%

How did COc1ccc(CN(C(=O)c2ccc(-c3ccccc3)[nH]2)C(C(=O)NCC2CCCO2)c2ccc(C)o2)cc1 (configuration not stated) do in these assays?
HPGD inh: inconclusive

Results for C#CC[N+](C)(C)CC#Cc1ccc(Cl)cc1 ?
HPGD inh: 3.3%

What do the screens show for `O=C(C1CCCO1)N1CCN(C(=S)Nc2ccc(Cl)cc2)CC1` (configuration not stated)?
HPGD inh: -14.1%

What do the screens show for `COC(=O)NC1C=CCCC1C(C)=O` (configuration not stated)?
HPGD inh: -3.6%

Results for NC(=O)C1(N2CCCCC2)CCN(Cc2ccc(F)cc2)CC1 ?
HPGD inh: -4.6%

What do the screens show for `N#CC1(c2ccccc2)CCCN1C(=O)c1ccc(Br)o1` (configuration not stated)?
HPGD inh: -6.4%

How did C=CCn1c(COc2ccccc2)nnc1SCC(=O)NCC(=O)OCC do in these assays?
HPGD inh: -7.3%

Results for CNC(=O)CN(C)S(=O)(=O)c1ccc(OC)c(Cl)c1 ?
HPGD inh: -3.6%

What do the screens show for `CCN(CC)S(=O)(=O)c1ccc(-c2nnco2)cc1`?
HPGD inh: -9.7%

What do the screens show for `COc1ccc(Cl)cc1C(=O)NC(=S)Nc1cc(-c2nc3ccccc3[nH]2)ccc1C`?
HPGD inh: -17.4%

How did COc1ccc(C2COc3c(ccc(O)c3OC)C2)c(OC)c1O (configuration not stated) do in these assays?
HPGD inh: -12.8%

What do the screens show for `O=C(Nc1ccc(CN2CCCCC2)cc1)c1ccc2c(c1)OCO2`?
HPGD inh: 28.2µM*

Results for Cc1cc(C)c(S(=O)(=O)n2ccc(-c3ccc(OCCN(C)c4ccccn4)cc3)n2)c(C)c1 ?
HPGD inh: -8.2%

What do the screens show for `CCOC(=O)c1ccc(COC(=O)c2cc(=O)[nH]c3ccccc23)o1`?
HPGD inh: -23.0%

How did O=S(=O)(c1ccc(Cl)c(NC(=S)Nc2cccc(O)c2)c1)N1CCOCC1 do in these assays?
HPGD inh: -8.4%

Results for CN(C(=O)Cn1nnc(-c2cccc(C(F)(F)F)c2)n1)C1CCCCC1 ?
HPGD inh: -7.6%

What do the screens show for `O=S(=O)(NCCSc1ccccc1)c1ccc2c(c1)OCCO2`?
HPGD inh: -16.5%

Results for O=[N+]([O-])c1ccc(F)cc1F ?
HPGD inh: -6.7%

Four compounds picked at random from the list so far, as already listed:
Results for Cc1ccccc1OCC(O)CN (configuration not stated) ?
HPGD inh: -8.1%

What do the screens show for `O=C(Nc1ccc(-c2nc3ccccc3[nH]2)cc1)C1CCCO1` (configuration not stated)?
HPGD inh: inconclusive

Results for Cc1cc(NC(=O)c2cc3ccccc3oc2=O)no1 ?
HPGD inh: -11.0%

How did O=C(c1ccco1)N1CCN(C(=O)c2ccc(Cn3cc(Br)cn3)o2)CC1 do in these assays?
HPGD inh: -12.1%

The list goes on.
Results for CC(CNC(=O)c1ccc(C(C)(C)C)cc1)CN(C)C (configuration not stated) ?
HPGD inh: -19.0%

How did CCCCC(CC)C(=O)NCCc1ccc(S(N)(=O)=O)cc1 (configuration not stated) do in these assays?
HPGD inh: -3.5%

Results for CCCCNC(=O)CCn1nc(-c2ccccc2)ccc1=O ?
HPGD inh: -6.7%

Results for O=C(O)Cc1cc(I)c(Oc2cc(I)c(O)c(I)c2)c(I)c1 ?
HPGD inh: -5.1%

What do the screens show for `COc1ccc(C2SCCN2C(=S)Nc2ccc(Cl)cc2)cc1` (configuration not stated)?
HPGD inh: inconclusive

What do the screens show for `Cc1ccc(S(=O)(=O)N2CCC(C(=O)O)(c3ccccc3)CC2)cc1`?
HPGD inh: -4.1%

How did Cc1cccc(-c2nnc(N)s2)c1 do in these assays?
HPGD inh: -26.3%

How did O=C(COC(=O)CC(c1ccccc1)c1ccccc1)Nc1c(F)cccc1F do in these assays?
HPGD inh: -5.7%

Results for CCCS(=O)(=O)N1CCC(C(=O)NC2CCCC(C)C2C)CC1 (configuration not stated) ?
HPGD inh: -12.8%

How did O=C(CN(Cc1ccco1)C(=O)c1ccc(Cl)cc1)Nc1c(Cl)cc(Cl)cc1Cl do in these assays?
HPGD inh: 1.9%

How did Cc1cc(C)n(S(=O)(=O)c2ccc3ccccc3c2)n1 do in these assays?
HPGD inh: -28.7%

How did CC(C)Cc1nc(C#N)c(N2CCC(C(N)=O)CC2)o1 do in these assays?
HPGD inh: -6.6%
